Screening data from PubChem.
gsp agonist: qHTS for Agonist of gsp, the Etiologic Mutation Responsible for Fibrous Dysplasia/McCune-Albright Syndrome: qHTS; Potency, µM (top dose mostly 76.9 µM), for the others: at the highest dose activation (cAMP increase), most hits filed as activators; gsp mutant cells, cAMP HTRF, 30 min; control for the full effect not named in the record; 340,000 compounds, 0.13% hits; active = well fitted activation curve with a large enough effect; inconclusive = small, poorly fitted or top-dose-only effect, or another doubt; inactive = no such curve, though single readings can be large or run the other way; cell line not stated here;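 further: phosphodiesterase inhibitor Ro 20-1724 added with compounds to block cAMP breakdown; potency means the concentration at half of the fitted maximal effect; nearly all actives have a fitted effect of over 60% in size; about a fifth of the inactives were tested at one dose only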
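Cells in DMEM/10% FBS with G418 were pretreated with compounds in DMSO plus […] (300 uM stock) for 30 min at 37C. cAMP was measured by HTRF (cAMP-d2 plus anti-cAMP antibody-K) after 30 min at room temperature.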
PINK1 modulator: A Quantitative High throughput Screen to Identify Chemical Modulators of PINK1 Expression; PINK1 immunofluorescence, high-content cytometry, 24 h; 410,000 compounds, 0.2% hits; Potency, µM (titrated, usually from 76.6 µM), for inactives: at the top dose activation (PINK1 increase), usual class: activators; AID 624263, 2012; active = well fitted activation curve with a large enough effect; inconclusive = small, poorly fitted or top-dose-only effect; inactive = flat fitted curve, though single readings scatter; cell line not stated here;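 further: potency means the concentration at half of the fitted maximal effect; % of control where 0% means no effect; nearly all actives have a fitted effect of over 65% in size; a mitochondrial uncoupler was the plate control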
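Stable cell line treated 24 h with compounds at 5 concentrations (CCCP controls), then fixed and immunostained for PINK1 plus nuclear and cell stains; PINK1 immunofluorescence quantified by laser-scanning microplate cytometry.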
Sfp PPTase inh: qHTS Assay for Inhibitors of Bacillus subtilis Sfp phosphopantetheinyl transferase (PPTase) | 4'-phosphopantetheinyl transferase ffp (Bacillus subtilis), Q9F4F7 | Biochemical Sfp PPTase activity, qHTS | Potency, µM, for inactives: max response, negative = inhibition, hits mostly inhibitors | 310,000 compounds, 3.5% hits | AID 1490, 2009; active means well fitted inhibition curve with a large enough effect; inconclusive means small, poorly fitted or top-dose-only effect, or another doubt; inactive means no such curve, though single readings can be large or run the other way;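 further: the enzyme is Sfp with the accession as filed and its product quenches rhodamine fluorescence; potency means the concentration at half of the fitted maximal effect; 0% = enzyme reaction without inhibitor and -100% = no enzyme wells; top concentration of the series not given in the record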
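Step 1, compound plus 15 nM Sfp-PPTase, 15 min, room temperature. Step 2, add rhodamine-CoA (5 uM) and BHQ-2-YbbR (12.5 uM). Step 3, read 525/598 nm fluorescence at 0 and 30 min.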
gsp antag: qHTS for Antagonists of gsp, the Etiologic Mutation Responsible for Fibrous Dysplasia/McCune-Albright Syndrome: qHTS | 340,000 compounds, 0.4% hits | gsp-mutant cells, cAMP HTRF, 30 min; control for the full effect not named in the record | AID 624288, 2012 | Potency, µM (top dose mostly 76.9 µM), inactives show at the top dose activity change, negative = inhibition, most hits filed as inhibitors; active = falling curve of any shape with a large fitted effect; inconclusive = falling curve, mostly with a smaller effect; inactive = flat or rising curve; cell line not stated here;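 further: intracellular cAMP measured with PDE inhibitor Ro 20-1724 present during compound exposure; potency means the concentration at half of the fitted maximal effect; on the % scale 0 is the no-effect control and ±100 the full control effect; nearly all actives have a fitted effect of over 65% in size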
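Measurement of cellular cAMP by homogeneous time-resolved fluorescence following a 30 min compound exposure at 37C. The PDE inhibitor […] was present throughout; the assay buffer was DPBS with 0.05% BSA and 0.005% Tween 20.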
ClpP mod: qHTS Assay for Activators of ClpP | ATP-dependent Clp protease proteolytic subunit (Bacillus subtilis (strain 168)), P80244 | purified B. subtilis ClpP, FRET peptide cleavage, 20 min | Potency, µM (highest dose often 57.5 µM), for inactives: at the top dose activity change, negative = active | 340,000 compounds, 1.9% hits | AID 651965, 2013; active = well fitted falling curve with a large enough effect; inconclusive = small, poorly fitted or top-dose-only effect; inactive = no such curve, though single readings can be large or run the other way; further: potency means the concentration at half of the fitted maximal effect; the source files actives as falling curves though it sought activators and does not explain the sign; nearly all actives have a fitted effect of over 65% in size; many hits overshoot -100%
Target sequence (P80244 whole entry, looked up): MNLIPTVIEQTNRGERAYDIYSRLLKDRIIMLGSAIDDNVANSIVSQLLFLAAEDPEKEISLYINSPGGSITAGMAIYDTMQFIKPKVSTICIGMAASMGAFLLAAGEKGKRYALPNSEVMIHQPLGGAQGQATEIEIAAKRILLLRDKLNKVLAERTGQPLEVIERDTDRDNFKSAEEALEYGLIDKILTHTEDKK
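Purified B. subtilis ClpP, 10 microg/mL final in Tris/HCl pH8 with KCl, BSA, glycerol and Tween-20, cleaved an Abz/nitrotyrosine-quenched decapeptide. Fluorescence (ex 320, em 430) was read at 0 and 20 min at room temperature. Delta was normalized to 5.8 microM ADEP and DMSO/no-enzyme controls.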
D2 ag: Beta-Arrestin HTS for Positive Allosteric Modulators of the Human D2 Dopamine Receptor: Agonists | DiscoveRx PathHunter D2 beta-arrestin, luminescence, 90 min; 100% = 57 uM dopamine signal | 360,000 compounds, 0.084% hits | activation, % (concentration not given with the values) | D(2) dopamine receptor (Homo sapiens), P14416 | AID 624465, 2012; in the data active = activation above about 40%; inconclusive = about 15% to 40%; inactive = below about 15%; further: the text of the record calls up to 30% inactive
Target sequence (P14416 whole entry, looked up): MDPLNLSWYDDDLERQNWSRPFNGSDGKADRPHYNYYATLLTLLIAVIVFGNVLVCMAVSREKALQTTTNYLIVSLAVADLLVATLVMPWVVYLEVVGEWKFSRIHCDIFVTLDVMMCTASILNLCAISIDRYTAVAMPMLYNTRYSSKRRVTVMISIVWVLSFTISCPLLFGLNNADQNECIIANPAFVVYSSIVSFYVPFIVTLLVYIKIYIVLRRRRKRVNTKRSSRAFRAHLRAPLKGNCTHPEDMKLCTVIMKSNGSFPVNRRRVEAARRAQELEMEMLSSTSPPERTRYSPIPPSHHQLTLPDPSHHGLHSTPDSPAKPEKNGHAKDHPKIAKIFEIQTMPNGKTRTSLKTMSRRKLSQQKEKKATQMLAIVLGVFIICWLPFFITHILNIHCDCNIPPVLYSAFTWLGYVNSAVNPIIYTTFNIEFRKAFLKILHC
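Agonist mode: compounds alone added to overnight-plated D2 PathHunter cells for 90 min at 37 C, with 57 uM final dopamine (EC100) defining full response. Beta-arrestin recruitment detected by chemiluminescent reagent, read after 1 h at ambient temperature.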
Menin MLL FP FL: qHTS Assay for Inhibitors Targeting the Menin-MLL Interaction in MLL Related Leukemias: Competition With Fluorescein Labeled MLL-derived Peptide; FP activity change, % at 61.4 µM; Fluorescence polarization, fluorescein-MLL peptide displacement from menin; AID 1766, 2009; 290,000 tested, under 10 active; inconclusive = falling polarisation curve, or a change in total fluorescence; inactive = total fluorescence flat and polarisation flat or rising; no compound was filed as active; the % refers to the polarisation; negative = inhibition;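 further: % of control where 0% means no effect; inhibitors lower the polarisation; unlabelled MLL peptide was the positive control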
Numbers without * were called inactive; ? = inconclusive; . = not tested or not shown; & = joins results of further samples; [ ] = dose if it differs, or a comment.

Preview, three compounds:
Below each SMILES – gsp agonist | PINK1 modulator | Sfp PPTase inh | gsp antag | ClpP mod | D2 ag | Menin MLL FP FL
O=C(O)C1CCCN1c1ncccc1[N+](=O)[O-] (stereo unspecified)
 : 3.0%[15.4 µM] | 0.2% | 2.4% | 11.3% | . | 2.8 | -8.6
COc1ccccc1N1CCN(C(=O)CN2C(=O)c3ccccc3C2=O)CC1
 : -31.8%[inhibitor] | -3.7% | 6.7% | -14.8% | . | 0.4 | 2.6
O=C(NCc1ccccc1)c1cccc(NC(=O)C2CCCCC2)c1
 : . | 0.2% | . | -0.8% | 1.2% | 2.5 | .

The whole of this part, from the start:
Below each SMILES – gsp agonist | PINK1 modulator | Sfp PPTase inh | gsp antag | ClpP mod | D2 ag | Menin MLL FP FL
O=C(O)C1CCCN1c1ncccc1[N+](=O)[O-] (stereo unspecified)
 : 3.0%[15.4 µM] | 0.2% | 2.4% | 11.3% | . | 2.8 | -8.6
COc1ccccc1N1CCN(C(=O)CN2C(=O)c3ccccc3C2=O)CC1
 : -31.8%[inhibitor] | -3.7% | 6.7% | -14.8% | . | 0.4 | 2.6
O=C(NCc1ccccc1)c1cccc(NC(=O)C2CCCCC2)c1
 : . | 0.2% | . | -0.8% | 1.2% | 2.5 | .
Clc1ncccc1-c1nc2ccccc2n1Cc1ccccc1
 : -11.4% | 1.1%[38.3 µM] | 20.0% | -11.3% | -11.2% | 0.4 | 4.7
O=C(CCc1nnc(-c2ccsc2)o1)NCc1ccccc1OC(F)(F)F
 : -25.7% | 0.4% | 15.6% | -0.2% | . | 0.9 | 2.9
O=C1OC(=O)C2C3CCC(O3)C12 (stereo unspecified)
 : . | 14.9% | -22.7%&-5.2% | . | . | . | 0.4&-14.3&-6.3
CC1CCN(C(=O)C2CCCCN2S(=O)(=O)c2cccc([N+](=O)[O-])c2)CC1 (stereo unspecified)
 : -50.3%[inhibitor] | 0.7% | -9.6% | 50.1µM* | 1.0% | -5.3 | -3.2
CCc1cc(-c2nc(N)ncc2-c2ccc(Br)cc2)c(O)cc1OC
 : 3.1%[15.4 µM] | -1.2% | 10.7% | -7.1% | . | -2.3 | 1.6
NS(=O)(=O)c1ccc(NC(=O)COC(=O)COc2ccc(Br)cc2)cc1
 : 2.2% | -1.1% | 2.4% | 9.6% | 0.6% | -2.2 | 1.3
CC1Cc2nc(SCC(=O)c3ccccc3)n(Cc3ccccc3)c(=O)c2S1 (stereo unspecified)
 : -55.6% | 3.0% | 3.2% | -12.3% | -1.3% | -0.5 | 0.3
COc1cc(C2CC(c3cccnc3)=NN2c2ccc(F)cc2)cc(OC)c1OC (stereo unspecified)
 : ? | 10.3% | -19.5% | -7.0% | 4.2% | -0.7 | -4.9
CCCCN(C(=O)Cc1ccc2c(c1)OCCO2)c1c(N)n(CC(C)C)c(=O)[nH]c1=O
 : -1.7% | 2.2% | . | 20.1% | 0.9% | -0.7 | .
CCOc1ncccc1C(=O)Nc1ccccc1F
 : -5.3%[15.4 µM] | 1.0% | -10.3% | -5.3% | . | -5.0 | 22.3
Cc1nn(CC(=O)OCC(=O)Nc2cccc(S(N)(=O)=O)c2)c(C)c1[N+](=O)[O-]
 : 33.4% | 2.6% | . | 14.3% | -1.2% | -0.4 | .
CCSc1nnc(-c2ccc(C)cc2)c2ccccc12
 : -62.6%[inhibitor] | -1.4% | -0.5% | ? | -0.3% | -2.3 | 1.8
Cc1onc(-c2c(Cl)cccc2Cl)c1C(=O)N/N=C(\N)COc1ccc(Cl)cc1
 : -13.0% | -1.9% | 27.8% | -5.7% | -0.3% | 0.1 | -0.1
CC(=O)c1c(N2CCN(Cc3ccccc3)CC2)[nH]c(-c2ccccc2)nc1=S
 : -24.9% | . | 11.1% | -4.5% | 0.7% | -2.4 | -0.9
COc1ccc(OCC(=O)Nc2cc(S(=O)(=O)N3CCCC3)ccc2Cl)cc1
 : 4.4% | 15.0% | . | -7.6% | -5.1% | 0.7 | .
CCOc1ccccc1/C=C/c1onc(C)c1S(=O)(=O)N1CCC(C(=O)N2CCCCCC2)CC1
 : 11.3% | -1.7% | 3.8% | -15.7% | ? | 1.3 | .
CC1(C(=O)NC2CCN(Cc3ccccc3)CC2)CCN1Cc1ccc(OC(F)(F)F)cc1 (stereo unspecified)
 : . | 0.0% | . | . | 1.1% | -3.7 | .
O=C1C2(CCC13COC(c1ccc(O)cc1)OC3)COC(c1ccc(O)cc1)OC2 (stereo unspecified)
 : -13.0% | -0.3%[38.3 µM] | 3.2% | 4.8% | 0.2% | 1.1 | 2.9
COc1ccc(Cl)cc1NC(=O)CN(C)C(=O)C1CC(=O)N(Cc2ccc(C)cc2)C1 (stereo unspecified)
 : 0.3%[15.4 µM] | 4.3% | . | 0.1% | . | -2.5 | .
Cc1ccc(S(=O)(=O)N2C[C@H]3[C@H]4C(=O)N(c5ccccc5)C(=O)[C@H]4C[C@H](OC(=O)NCc4ccccc4F)[C@@]3(O)C2)cc1
 : 12.3% | 3.1% | . | . | 1.1% | -9.9 | .
CC(C)c1ccc(/C=N/NC(=O)c2ccccc2Cl)cc1
 : 13.2% | 4.0% | 13.0% | 21.1% | 0.8% | -1.1 | -0.3
CCOC(=O)c1c(N)sc(C(=O)N2CCCCC2)c1C
 : 12.8% | -0.3% | 12.0% | 5.3% | 0.4% | -4.7 | 0.5
O=C(Nc1ccc(C(=O)N2CCCCC2)cc1)c1ccccc1
 : . | 1.6% | . | 2.1% | 1.3% | 0.4 | .
O=C(c1cccc(C(F)(F)F)c1)N1CCOC12CCN(c1ncc(C(F)(F)F)cc1Cl)CC2
 : -1.9% | 0.4% | 10.7% | -11.1% | -5.6% | 2.8 | 1.6
CC(C)CC(=O)NNC(=O)C(C)C
 : -4.8%[15.4 µM] | 0.7% | ? | 20.4% | -0.8% | -6.3 | -2.1
COc1ccc(Cn2c(C3CC3)nc3ccc(NC(C)=O)cc3c2=O)cc1
 : ? | -0.3% | -8.0% | -7.1% | -8.8% | 0.1 | 0.7
CCN(CC)S(=O)(=O)c1cccc(NC(=O)Nc2cccc(C(F)(F)F)c2)c1
 : -33.4%[inhibitor] | ? | -7.9% | 31.6µM* | 2.0% | 2.1 | 2.4
COc1cc(CN2CC(=O)N(c3cccc(Cl)c3C)C2=S)cc(OC)c1OC
 : ? | 1.1% | 3.6% | -6.7% | -1.9% | 3.7 | 1.7
Cc1ccc(S(=O)(=O)NC(C)C(=O)Nc2ccccc2C(=O)N2CCCC2)cc1 (stereo unspecified)
 : -44.9%[inhibitor] | 1.2% | 6.7% | 1.7% | -15.3% | -0.9 | -0.2
COC(=O)CCCCCCCCC(O)C[N+]1(C)CCOCC1 (stereo unspecified)
 : -0.2%[15.4 µM] | 0.0% | -2.7% | 5.7% | 0.6% | -5.0 | 4.7
O=C(Nc1ccccc1N1CCN(c2ccc(F)cc2)CC1)C12CC3CC(CC(C3)C1)C2
 : 1.1% | 0.1% | 4.3% | -9.5% | -2.3% | 0.8 | 0.1
CCCCn1c(=O)c2c(nc3n2CCCN3Cc2ccccc2)n(C)c1=O
 : 1.4% | 6.9% | 0.6% | -3.1% | . | 0.2 | -6.8
COC(=O)/C=C/C(=O)N1CCN(c2ccccc2C)CC1
 : ? | 7.9% | 3.8% | -6.6% | -2.0% | -5.7 | 3.1
CCC(=O)Nc1ccccc1Nc1cc(C#N)c(C#N)cc1[N+](=O)[O-]
 : -30.9%[inhibitor] | -1.2% | 9.7% | -2.6% | -0.2% | 10.4 | -2.3
COc1ccccc1NC(=O)CSC(N)=O
 : -21.4% | 2.5% | 44.7µM* | -4.8% | -0.2% | -6.9 | 2.6
CC(=O)NS(=O)(=O)c1ccc(NC(=O)/C=C/c2ccccc2)cc1
 : -18.1% | -1.3% | -7.1% | -4.7% | . | 0.0 | -1.3
CC(=O)Nc1nc(C(=O)Nc2c(C)n[nH]c2C)cs1
 : 29.0% | -2.3%[38.3 µM] | -6.8% | -4.1% | 0.8% | -1.4 | -1.3
CCOc1ncccc1C(=O)N1CCN(S(=O)(=O)c2ccc3c(c2)OCCO3)CC1
 : -6.4% | 3.9% | . | 11.1% | 1.2% | -2.6 | .
COc1ccc(C(=O)O)cc1S(=O)(=O)NCc1cccnc1
 : 4.3% | -0.8% | 14.0% | 9.5% | -0.3% | -11.2 | -5.2
Cc1[nH]c2ccccc2c1/C=C/c1nc2ccccc2c(=O)[nH]1
 : -7.1%[15.4 µM] | -1.9% | -11.3% | -21.0% | . | 4.1 | 6.4
O=C(NC1CCCN(Cc2ccc(Cl)cc2)C1)c1c(F)cccc1F (stereo unspecified)
 : 0.0% | -0.5% | 2.3% | 5.1% | . | -3.5 | -0.5
COc1ccc(/C=C2\C(=O)NC(=S)N2C(=O)c2ccc(F)cc2)cc1
 : -2.1%[15.4 µM] | 7.2% | ? | -33.0% | -1.1% | -2.6 | ?
CC(=O)CCC(=O)NC1CCCc2c1cnn2-c1ccc(C(C)(C)C)cc1 (stereo unspecified)
 : 15.3% | 2.2% | 16.8% | -12.6% | 0.4% | -4.0 | 1.5
Cn1c(=O)cc(OCCCC(=O)Nc2cccc(Cl)c2)c2ccccc21
 : . | 9.1% | . | . | -2.2% | 2.6 | .
CCN(CC)S(=O)(=O)c1cccc(C(=O)Nc2nnc(C)s2)c1
 : 21.0%[15.4 µM] | -0.3% | -4.0% | -14.9% | . | 3.4 | 7.9
Cc1cc2n(n1)C(c1ccco1)Nc1ccccc1-2 (stereo unspecified)
 : 20.1% | -1.0% | 11.5% | 3.0% | ? | -2.2 | 2.2
